Compound activity as filed in PubChem BioAssay.
A1 apoptosis 2: compounds inhibiting A1, read as caspase activation. MEF A1-2A-BIM cells, caspase-Glo luminescence, 3 h; percent of clofoctol response, DMSO zero. caspase activation, % (concentration not given with the values). 24,000 tested, under 10 active; in the data active = caspase activation above about 5.9%;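 note: wells of about 30 µL received 50 nL stock; the first replicate is given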
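Evaluation: Caspase-3/7 activity from luminescence increase | Assay system: A1-2A-BIM mouse embryonic fibroblasts | Quantity: 2500 MEF cells/well | Medium: RPMI-1640 plus 10% FBS | Detection: Caspase-Glo 3/7 luminescence, 1 h at room temperature | Dosing: 50 nL compound per well, pinned | Timing: Cells settled overnight, compound exposure 3 h at 37 °C, 5% CO2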
The depositor's hits bear a star. The list is partial. The share of hits here may be higher or lower than overall.

Start of the data: the first seven entries (preview)
SMILES	A1 apoptosis 2
C[C@@H]1CN([C@H](C)CO)C(=O)c2cccc(NC(=O)Nc3cccc4ccccc34)c2O[C@@H]1CN(C)CC1CCCCC1	-0.5
COc1ccc(NC(=O)N(C)C[C@H]2Oc3ccc(NC(=O)C4CCCCC4)cc3C(=O)N([C@@H](C)CO)C[C@@H]2C)cc1	-0.3
Cc1cccc(CN(C)C[C@@H]2Oc3ncc(Br)cc3C(=O)N([C@H](C)CO)C[C@@H]2C)c1	0.3
C[C@@H]1CN([C@H](C)CO)C(=O)Cc2cc(NC(=O)CCCCCC(=O)Nc3ccccc3N)ccc2O[C@H]1CN(C)C(=O)Nc1ccc2c(c1)OCO2	-0.1
Cc1ccc(S(=O)(=O)N(C)C[C@@H]2Oc3c(NC(=O)c4cc(C)nn4C)cccc3C(=O)N([C@H](C)CO)C[C@@H]2C)cc1	-1.8
CC(C)NC(=O)N(C)C[C@H]1OCCCC[C@@H](C)Oc2ccc(NC(=O)Nc3cccc4ccccc34)cc2C(=O)N([C@H](C)CO)C[C@@H]1C	0.1
Cc1noc(C)c1NC(=O)Nc1ccc2c(c1)C(=O)N([C@@H](C)CO)C[C@H](C)[C@@H](CN(C)C(=O)Cc1ccccc1)OCCCC[C@H](C)O2	0.1

The whole of this part, repeating the preview:
SMILES	A1 apoptosis 2
C[C@@H]1CN([C@H](C)CO)C(=O)c2cccc(NC(=O)Nc3cccc4ccccc34)c2O[C@@H]1CN(C)CC1CCCCC1	-0.5
COc1ccc(NC(=O)N(C)C[C@H]2Oc3ccc(NC(=O)C4CCCCC4)cc3C(=O)N([C@@H](C)CO)C[C@@H]2C)cc1	-0.3
Cc1cccc(CN(C)C[C@@H]2Oc3ncc(Br)cc3C(=O)N([C@H](C)CO)C[C@@H]2C)c1	0.3
C[C@@H]1CN([C@H](C)CO)C(=O)Cc2cc(NC(=O)CCCCCC(=O)Nc3ccccc3N)ccc2O[C@H]1CN(C)C(=O)Nc1ccc2c(c1)OCO2	-0.1
Cc1ccc(S(=O)(=O)N(C)C[C@@H]2Oc3c(NC(=O)c4cc(C)nn4C)cccc3C(=O)N([C@H](C)CO)C[C@@H]2C)cc1	-1.8
CC(C)NC(=O)N(C)C[C@H]1OCCCC[C@@H](C)Oc2ccc(NC(=O)Nc3cccc4ccccc34)cc2C(=O)N([C@H](C)CO)C[C@@H]1C	0.1
Cc1noc(C)c1NC(=O)Nc1ccc2c(c1)C(=O)N([C@@H](C)CO)C[C@H](C)[C@@H](CN(C)C(=O)Cc1ccccc1)OCCCC[C@H](C)O2	0.1
C[C@@H]1CN([C@@H](C)CO)C(=O)c2cc(NC(=O)CCCN(C)C)ccc2O[C@@H]1CN(C)C	1.1
C[C@@H]1CN([C@@H](C)CO)C(=O)c2cc(NC(=O)NC3CCCCC3)ccc2O[C@@H]1CN(C)C(=O)Nc1ccccc1	-0.6
C[C@H](CO)N1C[C@H](C)[C@@H](CN(C)S(=O)(=O)c2cccs2)Oc2ccc(NS(=O)(=O)c3cccs3)cc2C1=O	-0.9
Cc1noc(C)c1S(=O)(=O)N(C)C[C@H]1Oc2ccc(NC(=O)CCCN(C)C)cc2C(=O)N([C@H](C)CO)C[C@H]1C	-0.8
C[C@H]1CN([C@@H](C)CO)C(=O)c2cccc(NC(=O)Nc3ccc(F)cc3)c2O[C@@H]1CN(C)C(=O)NC1CCCCC1	-0.6
C[C@H](CO)N1C[C@H](C)[C@@H](CN(C)Cc2ccc(C(=O)O)cc2)Oc2c(NC(=O)c3nc4ccccc4s3)cccc2C1=O	0.5
Cc1ccc(S(=O)(=O)Nc2ccc3c(c2)C(=O)N([C@@H](C)CO)C[C@H](C)[C@H](CN(C)C(=O)Nc2c(C)noc2C)O3)cc1	-0.4
C[C@@H]1CN([C@H](C)CO)C(=O)CCCn2nncc2CO[C@@H]1CN(C)C(=O)c1cc(-c2ccccc2)on1	2.1

Some of the entries so far, with bars between the fields.
mol | A1 apoptosis 2
Cc1ccc(S(=O)(=O)Nc2ccc3c(c2)C(=O)N([C@@H](C)CO)C[C@H](C)[C@H](CN(C)C(=O)Nc2c(C)noc2C)O3)cc1 | -0.4
Cc1ccc(S(=O)(=O)N(C)C[C@@H]2Oc3c(NC(=O)c4cc(C)nn4C)cccc3C(=O)N([C@H](C)CO)C[C@@H]2C)cc1 | -1.8

New compounds follow:
SMILES	A1 apoptosis 2
C[C@@H]1CN([C@H](C)CO)C(=O)c2cccc(NC(=O)C3CCOCC3)c2O[C@H]1CN(C)CC1CC1	-0.5
CNC[C@H]1OCCCC[C@@H](C)Oc2ccc(N)cc2C(=O)N([C@@H](C)CO)C[C@@H]1C	1.2
CC(C)NC(=O)Nc1cccc2c1O[C@H](CN(C)Cc1ccc(C(F)(F)F)cc1)[C@@H](C)CN([C@@H](C)CO)C2=O	0.0
C[C@@H]1CCCCO[C@@H](CN(C)Cc2ccncc2)[C@H](C)CN([C@@H](C)CO)C(=O)c2cc(NS(=O)(=O)c3ccc(F)cc3)ccc2O1	0.0
C[C@H]1CN([C@@H](C)CO)C(=O)Cc2cc(NC(=O)Nc3ccccc3)ccc2O[C@H]1CN(C)C(=O)Nc1ccc(F)cc1	0.6
Cc1noc(C)c1NC(=O)N(C)C[C@@H]1Oc2ccc(NC(=O)Cc3ccccc3)cc2C(=O)N([C@H](C)CO)C[C@@H]1C	-0.5
O=C(NCc1nc2ccccc2[nH]1)C1=C[C@H](c2csc3ccccc23)C[C@H](OCCCCO)O1	0.1
C[C@H]1CN([C@@H](C)CO)C(=O)Cc2cc(NC(=O)CCN3CCOCC3)ccc2O[C@@H]1CN(C)S(=O)(=O)c1cccs1	0.1
Cc1ncc(CO)c(/C=N/NC(=O)CCCCCCC(=O)O)c1O	-0.7
C[C@H]1CN([C@@H](C)CO)C(=O)Cc2cc(NC(=O)C3CCCCC3)ccc2O[C@H]1CN(C)S(=O)(=O)c1ccc(Cl)cc1	0.7
Cc1cc(C(=O)Nc2cccc3c2O[C@H](CN(C)CC2CC2)[C@H](C)CN([C@H](C)CO)C3=O)n(C)n1	-1.9
C[C@H](CO)N1C[C@H](C)[C@@H](CN(C)C(=O)Nc2ccccc2)Oc2c(NC(=O)c3ccc(-c4nccs4)cc3)cccc2C1=O	-0.4
Cc1ccc(S(=O)(=O)Nc2ccc3c(c2)C(=O)N([C@@H](C)CO)C[C@H](C)[C@@H](CN(C)C(=O)Nc2c(C)noc2C)O3)cc1	-0.5
C[C@@H]1CN([C@@H](C)CO)C(=O)Cc2cc(NC(=O)CCC(F)(F)F)ccc2O[C@H]1CN(C)C(=O)Nc1cccc2ccccc12	-0.2
Cc1noc(C)c1NC(=O)N(C)C[C@H]1Oc2ccc(NC(=O)Nc3ccc4c(c3)OCO4)cc2CC(=O)N([C@@H](C)CO)C[C@@H]1C	-0.9
C[C@H](CO)N1C[C@H](C)[C@H](CN(C)Cc2ccccc2)OCCCC[C@H](C)Oc2ccc(NS(=O)(=O)c3cn(C)cn3)cc2C1=O	-0.3
C[C@@H]1CCCCO[C@@H](CN(C)C(=O)c2ccncc2)[C@@H](C)CN([C@H](C)CO)C(=O)c2cc(NC(=O)C3CCCCC3)ccc2O1	-0.8
C[C@@H]1CN([C@@H](C)CO)C(=O)c2cc(NC(=O)NC3CCCCC3)ccc2O[C@@H]1CN(C)S(C)(=O)=O	0.1
C=CCOC(=O)C1=C[C@H](c2csc3ccccc23)C[C@H](OCCCCO)O1	-0.9
COc1ccc(S(=O)(=O)N(C)C[C@@H]2Oc3ccc(NC(=O)Nc4ccc5c(c4)OCO5)cc3C(=O)N([C@@H](C)CO)C[C@H]2C)cc1	-0.1
C[C@H](CO)N1C[C@H](C)[C@H](CN(C)S(=O)(=O)c2cccc(F)c2)OCc2cnnn2CCCC1=O	0.7
CNC[C@H]1Oc2ccc(NC(=O)Cn3cnnn3)cc2C(=O)N([C@H](C)CO)C[C@@H]1C	0.3
COc1ccc(NC(=O)Nc2ccc3c(c2)C(=O)N([C@@H](C)CO)C[C@H](C)[C@@H](CN(C)C(=O)C2CCCCC2)OCCCC[C@H](C)O3)cc1	-0.6
Cc1ccc(S(=O)(=O)N(C)C[C@H]2Oc3ccc(NC(=O)Nc4c(C)noc4C)cc3C(=O)N([C@H](C)CO)C[C@H]2C)cc1	0.7
C[C@@H]1CN([C@@H](C)CO)C(=O)c2cc(NC(=O)CCCCCC(=O)Nc3ccccc3N)ccc2O[C@@H]1CN(C)S(C)(=O)=O	0.2
C[C@@H]1CN([C@H](C)CO)C(=O)Cc2cc(NS(=O)(=O)c3ccc(F)cc3)ccc2O[C@@H]1CN(C)Cc1ccncc1	0.4
COc1ccc(CN(C)C[C@@H]2OCCCC[C@H](C)Oc3ccc(NS(=O)(=O)c4c(C)noc4C)cc3C(=O)N([C@@H](C)CO)C[C@H]2C)cc1	1.0
COc1ccc(S(=O)(=O)Nc2ccc3c(c2)CC(=O)N([C@@H](C)CO)C[C@H](C)[C@@H](CN(C)Cc2ccc(Cl)c(Cl)c2)O3)cc1	0.2
C[C@@H]1CN([C@@H](C)CO)C(=O)c2cc(NC(=O)Nc3ccccc3)ccc2O[C@@H](C)CCCCO[C@@H]1CN(C)C(=O)Cc1ccccc1	0.0
C[C@H](CO)N1C[C@H](C)[C@H](CN(C)Cc2ccncc2)Oc2c(NS(=O)(=O)c3ccc(Cl)cc3)cccc2C1=O	0.4
COc1ccc(S(=O)(=O)N(C)C[C@@H]2Oc3ncc(C#CC(C)(C)O)cc3C(=O)N([C@H](C)CO)C[C@@H]2C)cc1	-0.1
C[C@H]1CN([C@@H](C)CO)C(=O)c2cc(NS(=O)(=O)c3ccccc3)ccc2O[C@@H]1CN(C)Cc1ccc(C(=O)Nc2ccccc2N)cc1	0.2
C[C@@H]1CN([C@H](C)CO)C(=O)c2cccc(NC(=O)c3ccncc3)c2O[C@H]1CN(C)S(=O)(=O)c1cccs1	0.0
COc1cc(CO)cc(I)c1O[C@H]1C=C(C(=O)NCCO)C[C@@H](N(CC2CCCCC2)C(=O)c2ccc(C(F)(F)F)cc2)[C@@H]1O	-0.5
Cc1noc(C)c1NC(=O)N(C)C[C@H]1OCCCC[C@H](C)Oc2ccc(NS(=O)(=O)c3ccc(F)cc3)cc2C(=O)N([C@@H](C)CO)C[C@@H]1C	-0.7
C[C@@H]1CN([C@@H](C)CO)C(=O)c2cccc(NC(=O)Nc3ccc4c(c3)OCO4)c2O[C@H]1CN(C)Cc1ccc(C(=O)Nc2ccccc2N)cc1	1.3
Cc1noc(C)c1S(=O)(=O)Nc1ccc2c(c1)C(=O)N([C@@H](C)CO)C[C@H](C)[C@H](CN(C)Cc1ccc(C(=O)O)cc1)O2	0.0
C[C@H](CO)N1C[C@H](C)[C@@H](CN(C)C(=O)NC2CCCCC2)Oc2c(NC(=O)C3CCCCC3)cccc2C1=O	-0.9
C[C@H](CO)N1C[C@H](C)[C@H](CN(C)C(=O)c2ccccc2)OCCCC[C@H](C)Oc2ccc(NS(=O)(=O)c3cn(C)cn3)cc2C1=O	2.1
C[C@@H]1CN([C@@H](C)CO)C(=O)c2cccc(NC(=O)C3CCOCC3)c2O[C@@H]1CN(C)Cc1ccncc1	-0.4
C[C@@H]1CN([C@@H](C)CO)C(=O)c2cc(NS(C)(=O)=O)ccc2O[C@@H](C)CCCCO[C@@H]1CN(C)Cc1ccc(C(F)(F)F)cc1	-1.3
C[C@H](CO)N1C[C@H](C)[C@@H](CN(C)C(=O)NC2CCCCC2)Oc2ccc(NS(=O)(=O)c3ccccc3)cc2CC1=O	0.6
Cc1noc(C)c1NC(=O)Nc1ccc2c(c1)C(=O)N([C@@H](C)CO)C[C@@H](C)[C@H](CN(C)C(=O)c1ccccc1)OCCCC[C@H](C)O2	1.2
C[C@H]1CN([C@@H](C)CO)C(=O)c2cccc(NS(=O)(=O)c3cn(C)cn3)c2O[C@H]1CN(C)S(=O)(=O)c1cn(C)cn1	-0.5
C[C@H](CO)N1C[C@H](C)[C@@H](CN(C)S(=O)(=O)c2ccc(-n3cccn3)cc2)OCc2cn(nn2)CCCC1=O	-1.7
Cc1noc(C)c1S(=O)(=O)Nc1cccc2c1O[C@@H](CN(C)S(=O)(=O)c1ccc(F)cc1)[C@@H](C)CN([C@H](C)CO)C2=O	-0.5
C[C@@H]1CN([C@H](C)CO)C(=O)c2cc(NC(=O)Cn3cnnn3)ccc2O[C@H]1CN(C)Cc1ccncc1	-0.6
C[C@@H]1CCCCO[C@H](CN(C)C(=O)Nc2ccc3c(c2)OCO3)[C@@H](C)CN([C@H](C)CO)C(=O)c2cc(NC(=O)Nc3ccc4c(c3)OCO4)ccc2O1	-2.4
C[C@H](CO)N1C[C@H](C)[C@H](CN(C)C(=O)NC2CCCCC2)OCCCC[C@H](C)Oc2ccc(NC(=O)CCCN(C)C)cc2C1=O	0.4
COc1ccc(NC(=O)N(C)C[C@H]2Oc3ccc(NC(=O)Nc4ccc(F)cc4)cc3CC(=O)N([C@H](C)CO)C[C@@H]2C)cc1	1.0
Cc1noc(C)c1S(=O)(=O)N(C)C[C@@H]1OCCCC[C@H](C)Oc2ccc(NC(=O)Nc3ccc(C(F)(F)F)cc3)cc2C(=O)N([C@H](C)CO)C[C@H]1C	0.1
Cc1noc(C)c1S(=O)(=O)Nc1ccc2c(c1)CC(=O)N([C@@H](C)CO)C[C@@H](C)[C@@H](CN(C)C)O2	-1.1
C[C@H]1CN([C@@H](C)CO)C(=O)c2cccc(NS(C)(=O)=O)c2O[C@H]1CN(C)S(=O)(=O)c1ccc(Cl)cc1	-0.3
C[C@@H]1CN([C@@H](C)CO)C(=O)c2cccc(NC(=O)Nc3ccc(C(F)(F)F)cc3)c2O[C@@H]1CN(C)Cc1ccc2c(c1)OCO2	0.6
Cc1noc(C)c1S(=O)(=O)Nc1ccc2c(c1)CC(=O)N([C@@H](C)CO)C[C@H](C)[C@@H](CN(C)CC1CC1)O2	1.5
COc1ccc(NC(=O)Nc2cccc3c2O[C@@H](CN(C)S(=O)(=O)c2ccc(OC)cc2)[C@H](C)CN([C@H](C)CO)C3=O)cc1	0.7
